Screens from PubChem BioAssay.
BJeLR viability = kills HRASV12-expressing BJeLR cells. BJeLR (HRASV12) viability, CellTiter-Glo ATP luminescence, 48 h; reference of the scale not given here. inhibition, % (test concentration not listed). actives 0.17% (n = 300,000);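 active means replicate mean above 50%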;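 further: 50 nL library stock added to about 25 µL; numbers are from one replicate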
ugtP null kill = compounds lethal to S. aureus RN4220 ugtP deletion mutant | OD600 growth, 16 h; some inactives read as strong as hits | actives 0.54% (n = 330,000) | growth inhibition, % (concentration not given with the values) | AID 1259309;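 active means z-score under -3 and OD600 up to 0.15 on both plates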;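 further: plate controls were untreated wells for no effect and antibiotic for full effect; wells of about 80 µL received 100 nL stock; the first replicate is given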
Bead autofluor = compound fluorescence in toxin protease inhibitor counterscreen; compound autofluorescence counterscreen, microsphere flow cytometry; active compounds read high; actives 3.1% (n = 360,000); fluorescence intensity (concentration not given with the values);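 active means at least 3 SD above the mean of all compounds, about 16000 in these data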;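 further: 100 nL of 1 mM stock went into each well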
Mtb hypoxia inh = inhibitors of hypoxia-regulated fluorescent reporter in Mycobacterium tuberculosis; M. tuberculosis hypoxia-regulated fluorescent reporter, fluorescence; fluorescence inhibition, % (test concentration not listed); actives 0.1% (n = 300,000);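 active means 35 to 45% if threefold the growth effect, above 45% if 1.5-fold the growth effect; inactive means the rest, general growth blockers included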;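 further: wells of about 50 µL received 100 nL stock; 0% = vehicle wells and 100% = reference inhibitor wells; whole bacteria with a GFP reporter of the hypoxia response; strong numbers were not always called active; many hits fall short of the cut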
PrP UTR inh = suppresses PrP 5' UTR mRNA reporter expression; cell-based PrP 5' UTR mRNA reporter, plate reader; inhibition, % (no concentration beside the values); actives 0.35% (n = 340,000);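 active means every replicate at 50% or more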;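 further: 0 = median of the neutral control wells; tested in H4 reporter cells; numbers are from one replicate; inactives centre near -14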
RN4220 kill = S. aureus RN4220 growth inhibition; OD600, 16 h; inhibition, % (test concentration not listed); actives 0.33% (n = 330,000); AID 1259311;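 active means z-score of -3 or lower and OD600 up to 0.18 on both plates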;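 further: plate controls were untreated cells for no effect and reference antibiotic for full effect; stock transfer was 100 nL into about 80 µL; one replicate is shown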
Mtb hypoxia inh growth = recorded beside Mtb hypoxia inh, whose call it bears; growth inhibition, %; measured here: M. tuberculosis growth (absorbance);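 0% = vehicle and 100% = reference antibiotic; read after six days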
An asterisk follows results filed as active.

Screening O=c1c2[nH]c3ccc(F)cc3c2ncn1CCCN1CCOCC1 returned BJeLR viability -3, ugtP null kill 13, Bead autofluor 2427, Mtb hypoxia inh -2, PrP UTR inh 0, RN4220 kill 10 and Mtb hypoxia inh growth 1.
For COc1ccc(C)cc1N(CC(=O)N/N=C/c1ccccc1C(=O)O)S(=O)(=O)c1ccccc1 the results were BJeLR viability 1, Bead autofluor 2081 and PrP UTR inh -16.
`COc1ccc(CN2CCC(CO)(Cc3ccccc3)CC2)cc1Cn1cccn1` gave BJeLR viability 2, ugtP null kill 6, Bead autofluor 3263, Mtb hypoxia inh 0, PrP UTR inh 3, RN4220 kill -3.1 and Mtb hypoxia inh growth 4.
Screening COc1ccc(-c2nn(-c3ccccc3)cc2C=NNc2ccc(Cl)c(C(=O)O)c2)cc1OC returned ugtP null kill 11, Mtb hypoxia inh 11, RN4220 kill 2.6 and Mtb hypoxia inh growth 6.
`CC(Oc1ccccc1)C(=O)Nc1cc(Cl)ccc1-n1cncn1` (configuration not stated) gave BJeLR viability -2, ugtP null kill 5, Bead autofluor 6614, Mtb hypoxia inh 0, PrP UTR inh 6, RN4220 kill 3.3 and Mtb hypoxia inh growth -6.
Screening CCCc1c(C(=O)NN=Cc2sccc2C)nnn1-c1nonc1N returned ugtP null kill -2, Mtb hypoxia inh 6, RN4220 kill 1.4 and Mtb hypoxia inh growth 10.
`COc1ccc(OC)c(N(CC(=O)NCCSCc2ccco2)S(=O)(=O)c2ccccc2)c1` gave BJeLR viability -4, ugtP null kill 7, Bead autofluor 3503, Mtb hypoxia inh -6, PrP UTR inh -21, RN4220 kill 2.3 and Mtb hypoxia inh growth -4.
`Cc1ccc(C)c(NC(=O)CCn2nc(C)cc2C)c1` gave BJeLR viability -1, ugtP null kill -6, Bead autofluor 3751, PrP UTR inh -6 and RN4220 kill 0.3.
Screening CC(=O)c1sc(N/N=C\c2ccc(Br)cc2)nc1C returned BJeLR viability -8, Bead autofluor 2195 and PrP UTR inh -66.
COc1ccc(NC(=O)CC2C(=O)N(c3ccc(OC)cc3)C(=O)N2Cc2ccc(OC)c(OC)c2)cc1 (configuration not stated) was read as BJeLR viability 0, ugtP null kill 5, Bead autofluor 4263, Mtb hypoxia inh 13, PrP UTR inh -7, RN4220 kill 5.9 and Mtb hypoxia inh growth -2.
Screening CC(=O)c1ccc(N2CCN(C(=O)CN(C)S(=O)(=O)c3cnc[nH]3)CC2)cc1 returned BJeLR viability -2, ugtP null kill 5, Bead autofluor 4328, Mtb hypoxia inh 7, PrP UTR inh -24, RN4220 kill 2.8 and Mtb hypoxia inh growth 0.
For CN1C(C(=O)NCc2ccco2)CC2Cn3c(nc4cc5ccccc5cc43)C21 (configuration not stated) the results were BJeLR viability -10, ugtP null kill 1, Bead autofluor 3152, Mtb hypoxia inh 10, PrP UTR inh -13, RN4220 kill 5.8 and Mtb hypoxia inh growth 17.
`CCc1ccc(NC(=O)C2CCN(c3ncnc4c3nc3n4CCCCC3)CC2)cc1` gave BJeLR viability 1, ugtP null kill 12, Bead autofluor 4611, Mtb hypoxia inh 13, PrP UTR inh 2, RN4220 kill 3.5 and Mtb hypoxia inh growth 8.
CCOC(=O)/C(C(=O)Nc1ccccc1Br)=C1/NC(C)(C)Cc2ccccc21 was read as BJeLR viability -5, Bead autofluor 7948 and PrP UTR inh -9.
NS(=O)(=O)c1ccc(CNC(=O)c2cnccn2)cc1 was read as BJeLR viability 4, ugtP null kill -1, Bead autofluor 3501, Mtb hypoxia inh 12, PrP UTR inh -5, RN4220 kill 2.9 and Mtb hypoxia inh growth 2.
`Cc1ccc(C(=O)CCC(=O)NCc2ccccc2)cc1` gave BJeLR viability -3, ugtP null kill 2, Mtb hypoxia inh 5, PrP UTR inh -20, RN4220 kill 2.1 and Mtb hypoxia inh growth 6.
`COCCn1c(-c2cccs2)nc2nc3ccccc3nc21` gave BJeLR viability -8, ugtP null kill -9, Bead autofluor 3712, Mtb hypoxia inh 0, PrP UTR inh -23, RN4220 kill 1.7 and Mtb hypoxia inh growth 6.
`O=c1[nH]c2ccc(F)cc2[nH]c1=O` gave BJeLR viability 1, ugtP null kill 1, Bead autofluor 2611, Mtb hypoxia inh 13, PrP UTR inh -3, RN4220 kill -0.4 and Mtb hypoxia inh growth 5.
O=C(Oc1cccc(NC2=NS(=O)(=O)c3ccccc32)c1)c1cccnc1 was read as BJeLR viability -7, ugtP null kill 9, Bead autofluor 4013, Mtb hypoxia inh 10, PrP UTR inh -21, RN4220 kill 2.2 and Mtb hypoxia inh growth 6.
COc1cccc(CN2CCNC(=O)C2CC(=O)NC2CCOCC2)c1OC (configuration not stated) was read as BJeLR viability -1, ugtP null kill 6, Bead autofluor 5023, Mtb hypoxia inh 6, PrP UTR inh -14, RN4220 kill 0.4 and Mtb hypoxia inh growth 2.

Brought forward from above: three entries, followed by the next part.
`O=c1[nH]c2ccc(F)cc2[nH]c1=O` gave BJeLR viability 1, ugtP null kill 1, Bead autofluor 2611, Mtb hypoxia inh 13, PrP UTR inh -3, RN4220 kill -0.4 and Mtb hypoxia inh growth 5.
O=C(Oc1cccc(NC2=NS(=O)(=O)c3ccccc32)c1)c1cccnc1 was read as BJeLR viability -7, ugtP null kill 9, Bead autofluor 4013, Mtb hypoxia inh 10, PrP UTR inh -21, RN4220 kill 2.2 and Mtb hypoxia inh growth 6.
COc1cccc(CN2CCNC(=O)C2CC(=O)NC2CCOCC2)c1OC (configuration not stated) was read as BJeLR viability -1, ugtP null kill 6, Bead autofluor 5023, Mtb hypoxia inh 6, PrP UTR inh -14, RN4220 kill 0.4 and Mtb hypoxia inh growth 2.
COc1cc(C(=O)N(CCCO)Cc2cc3ccc(C)c(C)c3[nH]c2=O)cc(OC)c1OC was read as BJeLR viability -7, ugtP null kill -6, Bead autofluor 13028, Mtb hypoxia inh 3, PrP UTR inh -12, RN4220 kill 0.0 and Mtb hypoxia inh growth -2.
CCOc1ccccc1NC(=O)C1Cc2ccccc2CN1S(C)(=O)=O (configuration not stated) was read as BJeLR viability 4, ugtP null kill -5, Bead autofluor 3772, Mtb hypoxia inh 3, PrP UTR inh -47, RN4220 kill 8.3 and Mtb hypoxia inh growth 12.
`O=C(CCNc1n[nH]c(=O)[nH]c1=O)N/N=C\c1cccc(OCc2ccccc2)c1` gave BJeLR viability -3, Bead autofluor 4074 and PrP UTR inh 1.
Screening COc1cccc(C(=O)NCCN2CCOCC2)c1 returned BJeLR viability 10, ugtP null kill -3, Bead autofluor 9509, Mtb hypoxia inh 6, PrP UTR inh -17, RN4220 kill 2.4 and Mtb hypoxia inh growth -2.
`CC(=O)Oc1ccc2nc(/C=C/c3ccc(C=O)cc3)oc(=O)c2c1` gave BJeLR viability -3, ugtP null kill 5, Bead autofluor 4312, Mtb hypoxia inh 0, PrP UTR inh -43, RN4220 kill 2.8 and Mtb hypoxia inh growth 11.
Screening Cc1cc(Oc2cc(N)cc([N+](=O)[O-])c2)ccc1Cl returned BJeLR viability -2, ugtP null kill 2, Bead autofluor 2516, Mtb hypoxia inh -6, PrP UTR inh -12, RN4220 kill -0.4 and Mtb hypoxia inh growth 5.
For CC(C)CC(=O)N=C1SC2CS(=O)(=O)CC2N1CCc1ccccc1 (configuration not stated) the results were BJeLR viability -1, ugtP null kill 11, Bead autofluor 4368, Mtb hypoxia inh 5, PrP UTR inh -5, RN4220 kill 6.1 and Mtb hypoxia inh growth 14.
For COC(=O)C1C(c2ccc(Cl)cc2)NC(c2ccc(Cl)cc2)C(C(=O)OC)S1(=O)=O (configuration not stated) the results were BJeLR viability 2, ugtP null kill -10, Bead autofluor 5606, Mtb hypoxia inh 9, PrP UTR inh -12, RN4220 kill -2.0 and Mtb hypoxia inh growth 5.
O=[N+]([O-])c1cccc(-c2cc(-c3cc(Br)ccc3O)[nH]n2)c1 was read as BJeLR viability 0, ugtP null kill 21, Bead autofluor 6184, Mtb hypoxia inh 20, PrP UTR inh -23, RN4220 kill 16 and Mtb hypoxia inh growth 3.
Screening Cc1cc(C)cc(NC(=O)CN(Cc2ccccc2)S(C)(=O)=O)c1 returned BJeLR viability -3, ugtP null kill 1, PrP UTR inh -8 and RN4220 kill 5.1.
For Fc1ccc(-c2csc(-c3ccccn3)n2)cc1F the results were BJeLR viability -4, ugtP null kill 5, Bead autofluor 4433, Mtb hypoxia inh 13, PrP UTR inh -80, RN4220 kill 4.0 and Mtb hypoxia inh growth 4.
Screening COCCSc1ncnc2c1oc1nc3c(cc12)COC(C)(C)C3 returned BJeLR viability 11, ugtP null kill 7, Bead autofluor 5899, Mtb hypoxia inh 5, PrP UTR inh -8, RN4220 kill 0.6 and Mtb hypoxia inh growth 13.
`CC1=C(C(=O)N(C)C)C(c2ccc(N3CCOCC3)cc2)NC(=O)N1` (configuration not stated) gave BJeLR viability 1, ugtP null kill 8, Bead autofluor 3246, Mtb hypoxia inh 13, PrP UTR inh -10, RN4220 kill 1.8 and Mtb hypoxia inh growth 6.
Screening CCOC(=O)Cc1csc(NC(=O)NC2(C(F)(F)F)Oc3cc(Cl)c(Cl)cc3O2)n1 returned BJeLR viability -1, ugtP null kill 5, Bead autofluor 4296, PrP UTR inh -20 and RN4220 kill 3.8.
Screening COc1cc(C=NNc2cccc(C)c2)ccc1OC(=O)c1cccs1 returned ugtP null kill 6, Mtb hypoxia inh 6, RN4220 kill 4.0 and Mtb hypoxia inh growth 5.
Screening Cc1cccc(-c2nnc(SCC(=O)NCc3ccc4c(c3)OCO4)n2C)c1 returned BJeLR viability -6, ugtP null kill -1, Bead autofluor 2723, PrP UTR inh -13 and RN4220 kill -4.9.
For CCCCc1nc2ccccc2c(NC(=O)CNC(C)(C)C)c1CCC the results were BJeLR viability 4, ugtP null kill 3, Bead autofluor 4969, PrP UTR inh -25 and RN4220 kill 6.4.
CC(C)C[C@H](NC(=O)c1nc[nH]c1C(=O)NCC(=O)OCc1ccccc1)C(=O)OC(C)(C)C was read as BJeLR viability 7, Bead autofluor 4014 and PrP UTR inh -22.
Screening O=C(N/C(=C/c1cccs1)c1nc2ccccc2[nH]1)c1ccccc1 returned BJeLR viability -23, ugtP null kill 14, Bead autofluor 8685, Mtb hypoxia inh 1, PrP UTR inh -23, RN4220 kill 8.1 and Mtb hypoxia inh growth 2.
For CCOc1cccc2cc(C(=O)NCc3ccc(OC)cc3)c(=N)oc12 the results were BJeLR viability 9, ugtP null kill -6, Bead autofluor 5606, Mtb hypoxia inh 3, PrP UTR inh 2, RN4220 kill 3.1 and Mtb hypoxia inh growth 13.

Among those listed so far, these have two or more sulfur atoms:
`COc1ccc(OC)c(N(CC(=O)NCCSCc2ccco2)S(=O)(=O)c2ccccc2)c1` gave BJeLR viability -4, ugtP null kill 7, Bead autofluor 3503, Mtb hypoxia inh -6, PrP UTR inh -21, RN4220 kill 2.3 and Mtb hypoxia inh growth -4.
For CC(C)CC(=O)N=C1SC2CS(=O)(=O)CC2N1CCc1ccccc1 (configuration not stated) the results were BJeLR viability -1, ugtP null kill 11, Bead autofluor 4368, Mtb hypoxia inh 5, PrP UTR inh -5, RN4220 kill 6.1 and Mtb hypoxia inh growth 14.

Additional compounds
CC(=O)N1C(Cc2ccccc2)C=C[C@]1(C)C(=O)NCCN1CCOCC1 (some centres not stated) was read as ugtP null kill -1, Mtb hypoxia inh 5, RN4220 kill 3.1 and Mtb hypoxia inh growth -3.
`C=CCn1c(C)c(C(C)=O)c(N2CCN(c3ccccc3)CC2)nc1=S` gave BJeLR viability -4, Bead autofluor 9863 and PrP UTR inh -43.
For Cc1cccc(Nc2nnc(SC/C(O)=C(\C#N)c3nc4ccccc4[nH]3)s2)c1 the results were BJeLR viability -5, ugtP null kill -17, Bead autofluor 2386, Mtb hypoxia inh -2, PrP UTR inh -61, RN4220 kill 8.7 and Mtb hypoxia inh growth -1.
Screening CCOc1cccc(OCCNC2CCCC2)c1 returned BJeLR viability 3, ugtP null kill 2, Bead autofluor 3611, Mtb hypoxia inh 3, PrP UTR inh -23, RN4220 kill 3.9 and Mtb hypoxia inh growth -5.
`Cc1ccc(C(=O)NCC(C)(C)O)cc1` gave BJeLR viability 1, ugtP null kill -6, Bead autofluor 5717, Mtb hypoxia inh 10, PrP UTR inh -29, RN4220 kill 6.6 and Mtb hypoxia inh growth 11.

Compounds were not picked by outcome; about 4% have a hit in one of these screens.
